NPYLR7 agonist – activates Aedes aegypti NPYLR7 receptor; HEK293T NPYLR7/Galpha15, GCaMP6s calcium fluorescence; activation, % at 10 µM; 0.15% of 270,000 active; in the data active = activation above about 40%;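 also: 0% = vehicle and 100% = reference agonist at the receptor; some compounds past the cut are filed as inactive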
NPYLR7 agonist max-min – also measured in NPYLR7 agonist; calls as there; activation, %; measured here: Max-Min RFU normalised activation; some inactives read as strong as hits;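 span of the calcium signal over five minutes; 0% = vehicle and 100% = native peptide agonist; compound fluorescence can raise it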
An asterisk follows results filed as active; & = joins results of further samples. A portion of the library; rates above refer to the full screens.

SMILES | NPYLR7 agonist | NPYLR7 agonist max-min
O=C(Cn1c(=O)oc2ccccc21)Nc1cccc2c1CCCC2 | 8 | 6
CCCc1cc(=O)[nH]c(-n2nc(C)cc2NC(=O)c2cc(OC)c(OC)c(OC)c2)n1 | -10 | -7
CC(C)(C)c1ccc(CN2CCC3(CCCO3)CCC2=O)cc1 (configuration not stated) | 7 | 1
O=C(COc1ccc(Cl)cc1Cl)NNC(=S)NC(=O)c1ccccc1 | -4 | 0
Cc1cc(Cl)c(C)c(S(=O)(=O)NC(C)c2ccncc2)c1Cl (configuration not stated) | 0&0 | 0&0
COc1cccc(C2(C)NC(=O)N(C(C)C(=O)NCc3ccccc3)C2=O)c1 (configuration not stated) | -3 | -3
NCc1nncn1C1CCCCC1 | 0 | -2
COc1ccc(/C=N\NC(=O)CSc2nc3ccccc3n2C)cc1 | -6 | -12
Cc1cc(C)cc(NC(=S)NNc2nc3ccccc3[nH]2)c1 | -8 | -13
Cc1cccc(-c2cc(N)n(-c3ccc(C(=O)NCCc4cccc(Cl)c4)cc3)n2)c1 | -2 | -4
CCc1ccc(/C=N\NC(=O)CSc2nnc(-c3ccccc3)n2-c2ccccc2)cc1 | -8 | -15
O=C(c1c2c(nc3ccccc13)CCN(Cc1ccccn1)C2)N1CCC(O)CC1 | 1 | 3
Cc1nc2ccccn2c1CC(=O)N1C[C@H]2C[C@H](O)[C@H](O)C[C@H]2C1 | 9 | 6
CCOc1cnn(Cc2ccccc2)c(=O)c1Nc1ccc(C(=O)O)cc1 | 6 | 5
CCc1ccc2oc3c(c(=O)c2c1)C(c1ccc(C(=O)OC)cc1)N(c1cc(C)on1)C3=O (configuration not stated) | 1 | -1
CCCCSc1nnc2c(n1)OC(c1cc(OC)c(O)c(OC)c1)Nc1ccccc1-2 (configuration not stated) | 0 | -4
CCCC(C)NC(=O)COc1ncnc2sc3c(c12)CCC(C)C3 (configuration not stated) | -8 | -7
Cc1noc2ccc(-c3c(-c4ccccc4)ncn3CC(C)n3ccnc3)cc12 (configuration not stated) | 13 | 4
O=C(CCc1nnc(Cc2cccc(C(F)(F)F)c2)o1)N1CCC[C@H]1CO | 4 | 1
COc1cc2cc[nH]c(=O)c2cc1F | -6 | 788
N#Cc1ccccc1S(=O)(=O)NCCc1ccc(F)cc1 | -15 | -19
O=C(NCc1cccc(-c2ncc(-c3ccccc3)[nH]2)c1)c1c(F)cccc1F | 3 | 8
OC(CNCC1COc2ccccc2O1)COC1CCCc2ccccc21 (configuration not stated) | 14 | 10
Cc1cccc(-c2cc(N)n(-c3ccc(C(=O)NCCCN(C)c4ccccc4)cc3)n2)c1 | -4 | -10
CC(C)C(C(=O)N1CCN(c2ccccc2)CC1)n1cnc2ccccc21 (configuration not stated) | -7 | -7

Of the compounds above, 3 have an aryl thioether with sulfur outside any ring.
SMILES | NPYLR7 agonist | NPYLR7 agonist max-min
COc1ccc(/C=N\NC(=O)CSc2nc3ccccc3n2C)cc1 | -6 | -12
CCc1ccc(/C=N\NC(=O)CSc2nnc(-c3ccccc3)n2-c2ccccc2)cc1 | -8 | -15
CCCCSc1nnc2c(n1)OC(c1cc(OC)c(O)c(OC)c1)Nc1ccccc1-2 (configuration not stated) | 0 | -4

Whole records, quoted from the list. Order of values: NPYLR7 agonist	NPYLR7 agonist max-min
Profile of O=C(CCc1nnc(Cc2cccc(C(F)(F)F)c2)o1)N1CCC[C@H]1CO : 4	1
Profile of O=C(Cn1c(=O)oc2ccccc21)Nc1cccc2c1CCCC2 : 8	6
Profile of CC(C)C(C(=O)N1CCN(c2ccccc2)CC1)n1cnc2ccccc21 (configuration not stated) : -7	-7
Profile of O=C(COc1ccc(Cl)cc1Cl)NNC(=S)NC(=O)c1ccccc1 : -4	0
Profile of CC(C)(C)c1ccc(CN2CCC3(CCCO3)CCC2=O)cc1 (configuration not stated) : 7	1

(next part)
SMILES | NPYLR7 agonist | NPYLR7 agonist max-min
c1ccc(-c2ccc(-c3nccn3CCc3cnccn3)s2)cc1 | -2 | -5
O=[N+]([O-])c1ccccc1N=Nc1c(O)[nH]c2ccccc12 | -3 | -6
O=C(CC(c1ccccc1)c1ccc2c(c1)OCO2)NCCc1ccco1 (configuration not stated) | 4 | 1
Cc1c(CN(C)Cc2ncc[nH]2)[nH]c2ccccc12 | 11 | 3
Cc1ccc(-n2ncc3c(=O)n(NC(=O)Cc4cccs4)cnc32)cc1 | 2 | 3
Cc1ccnn1-c1cccc(NS(=O)(=O)c2ccc(C(=O)O)cc2F)c1 | 10 | -2
Cc1cccc(CN(CC(O)COCC(C)C)CC2CCCO2)c1 (configuration not stated) | 11 | 7
CS(=O)(=O)NCC1CCN(Cc2cnc(N3CCCC3)nc2)C1 (configuration not stated) | -6 | -5
O=C(N=Nc1c(O)[nH]c2ccc(Br)cc12)c1[nH]nc2c1CCc1ccccc1-2 | 2 | 3
Cc1nc2scc(-c3cccc(NC(=O)Nc4ccccc4)c3)n2c(=O)c1C | -3 | -2
Cc1cc(C)n(C(=O)c2ccc(COc3cccc(Cl)c3)o2)n1 | 0 | -2
CCCCC(CC)CNC(=O)Nc1ccc(CC#N)cc1 (configuration not stated) | -3 | -8
O=C(NCCSCc1cccs1)C1CCCN(C(=O)N2CCCC2)C1 (configuration not stated) | 18 | 13
Cn1c(CNc2ccc([N+](=O)[O-])cc2)nc2ccccc21 | 8 | 0
COCCCN(CC(=O)N1CCc2sccc2C1COc1ccccc1OC)C(=O)c1cccs1 (configuration not stated) | -4 | 0
Cc1cccc(NC(=O)CNC(=O)CN(Cc2ccco2)C(=O)c2cccc3ccccc23)c1 | 24 | 35
CCCN(Cc1csc(COc2ccc(OC)cc2)n1)C(=O)C1CC1 | 30 | 22
C=CCn1c(=O)c2c(nc3n(Cc4ccco4)c(C)cn23)n(C)c1=O | 6 | 7
CCC1Cc2c(nc3c4c(nc(N5CCOCC5)c(C#N)c24)NC2(CCCCC2)N3)O1 (configuration not stated) | 4&2 | 5&1
COCCNC(=O)C(C1CCCC1)N1CCN(C(=O)c2ccccc2Cl)CC1 (configuration not stated) | -9 | -9
CCCSc1nc(O)cc(=O)[nH]1 | 1 | 7
CCNC(=O)C1(C)CCCN1C(=O)c1cc(C)on1 (configuration not stated) | -7 | -7
COc1ccc(C2CC(=O)N(CC(=O)NCCc3ccccc3)c3ccccc3S2)cc1OC (configuration not stated) | -3 | -5
CCN(CCO)c1ccc(Nc2cc(-c3ccc(OC)c(OC)c3)ncn2)cc1 | 12 | 7
CCCc1ccccc1N1C(=O)CSC1c1cccc(NC(=O)c2ccccc2C)c1 (configuration not stated) | 5 | 10

Sorted by molecular weight (falling): part of the list above.
SMILES | NPYLR7 agonist | NPYLR7 agonist max-min
COc1ccc(/C=N\NC(=O)CSc2nc3ccccc3n2C)cc1 | -6 | -12
CCCCC(CC)CNC(=O)Nc1ccc(CC#N)cc1 (configuration not stated) | -3 | -8
COc1cc2cc[nH]c(=O)c2cc1F | -6 | 788

(further entries)
SMILES | NPYLR7 agonist | NPYLR7 agonist max-min
O=C(NC1(c2cccc(Br)c2)CCC1)C1CC(=O)N(Cc2ccccn2)C1 (configuration not stated) | 1 | -6
CCOC(=O)Cn1c(C)c(Br)c(COC)c(C#N)c1=O | 4 | 4
COCCNC(CC(=O)Nc1cccc(Cl)c1)C(=O)O (configuration not stated) | 0 | 4
COc1ccc(Cl)cc1-n1nc(C(C)C)nc1-c1ncn[nH]1 | 14 | 4
COc1cccc(C(=O)Nc2ccc(C3SCC(=O)N3c3cccc(F)c3)cc2)c1 (configuration not stated) | -17 | -1
N#Cc1c(Cl)nsc1NC1CCN(Cc2ccccn2)CC1 | -2 | -1
CCOC(=O)N1CCN(S(=O)(=O)c2ccc(F)c(C(F)(F)F)c2)CC1 | 6 | 10
CCC(C)OC(=O)c1[nH]c2c(c1C)C(=O)CCC2 (configuration not stated) | 11 | 4
CCOc1nn(CC)cc1C(=O)N1CCN(C(C)=O)CC1 | -1 | -8
CCOC(=O)[C@H]1[C@@H](O)C(=O)N(Cc2ccccc2)C12CCN(C(=O)COC)CC2 | 6 | 21
Cc1ccc(OCCN(C)Cc2ccncc2)c(C)c1 | 0 | -1
N#Cc1cn(CCc2ccc(N3CCCCC3)cc2)c(=O)[nH]c1=O | 4 | 1
CC(=O)Oc1c(-c2ccc(NC(=O)Cc3ccccc3)cc2)c(-c2ccccc2F)nn1-c1cccc(C)c1C | 1 | 1
Cc1nn(-c2ccccc2)c(Cn2cnc(C#N)n2)c1C#N | 9 | 10
Cc1cn2c3c(=O)n(Cc4ccccc4)c(=O)n(C)c3nc2n1Cc1ccco1 | 21 | 6
CCc1nnc(C2CCN(C(=O)Nc3ccccc3)CC2)s1 | -3 | -1
CCC(Sc1ccc2nnc(-c3cccs3)n2n1)C(=O)OC (configuration not stated) | -3 | -2
CN(CCc1ccccn1)c1ncccc1CNC(=O)Nc1cccc(F)c1 | -1 | -4
O=C(Nc1nc(-c2ccc3c(c2)OCO3)cs1)c1cc(Cl)ccc1F | 2 | 7
CCc1ncc2c(n1)CN(C(=O)c1cnnn1-c1ccccc1)C2 | -4 | -10
O=C(c1cc2c(s1)CCOC2)N1CCN(CCO)CC1 | 11 | 9
Cc1cc(C)cc(CN2CCC(Cc3ccc(F)cc3)CC2)c1 | 5 | 18
CCCCCCC(=O)Nc1ccccc1C1SCC(=O)N1c1cc(F)ccc1F (configuration not stated) | 27 | 24
CCn1nnc2c(N3CCN(S(=O)(=O)c4cccnc4)CC3)ncnc21 | -1 | 5
CC(=O)N(CCN(C)C)Cc1c(-c2ccc(F)cc2)noc1N1CCOCC1 | -1 | 4
Other compounds
SMILES | NPYLR7 agonist | NPYLR7 agonist max-min
Cc1cc(NC(=O)C2CCN(C(=O)C3(c4ccccc4)CCOCC3)CC2)no1 | -6 | -9
CCC1=NS(=O)(=O)c2cc([N+](=O)[O-])ccc2N1c1ccc(F)cc1 | 20 | 11
CCOc1cc2c(cc1CSc1nnc(CCC(N)=O)n1C)OC(C)C2 (configuration not stated) | 11 | 6
COc1ccc(OC)c(C(C)Nc2nc(C)ns2)c1 (configuration not stated) | 4&-1 | 3
COc1cccc(Cn2c(=O)c(C(=O)NCc3ccc(F)cc3)nn(-c3ccc(C)c(C)c3)c2=O)c1 | -3 | 5
CCOc1cc2ccccc2cc1C(=O)N1CCC(C(N)=O)CC1 | 7 | 7
Cc1cccc(Nc2nc3nonc3nc2Nc2ccc(I)cc2)c1C | -4 | -9
CC(=O)c1c(C)[nH]c(C(=O)Nc2nc(-c3ccc(C)s3)cs2)c1C | 1 | -2
CCc1nc(C)sc1C(=O)NCc1cnn2ccccc12 | 9 | 2
CC(=O)N1CCN(Cc2nc(C(C)(C)C)cs2)CC1 | -2 | -7
Cc1ccc(-c2nnc(SCc3ccc(C(=O)NC4CC4)cc3)n2-c2ccccc2C)cc1 | 17 | 22
CC=CCn1c(=O)c2c(nc3n(-c4ccccc4)c(C)c(C)n23)n(C)c1=O | 10 | 9
Cc1c(C#N)c(NC(=O)CN2CCCC2)n(-c2cccc(F)c2)c1C | 1 | 0

Looked up above:
For NPYLR7 agonist max-min, `CC=CCn1c(=O)c2c(nc3n(-c4ccccc4)c(C)c(C)n23)n(C)c1=O` shows 9
For NPYLR7 agonist, `Cc1ccc(-c2nnc(SCc3ccc(C(=O)NC4CC4)cc3)n2-c2ccccc2C)cc1` shows 17
For NPYLR7 agonist max-min, `Cc1cccc(Nc2nc3nonc3nc2Nc2ccc(I)cc2)c1C` shows -9
For NPYLR7 agonist, `Cc1cc(NC(=O)C2CCN(C(=O)C3(c4ccccc4)CCOCC3)CC2)no1` shows -6
For NPYLR7 agonist, `CCC1=NS(=O)(=O)c2cc([N+](=O)[O-])ccc2N1c1ccc(F)cc1` shows 20
